Bioassay records from PubChem.
UUG fidelity – yeast start codon fidelity modulation. 350,000 compounds, 0.13% hits. activity score, % at 18.7 µM. S. cerevisiae UUG-firefly luciferase reporter, luminescence/redox ratio. AID 602363;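 active = replicate mean at a twofold rise or more, about +100% in these data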;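 also: firefly luciferase made from a UUG start codon reports start codon fidelity; reporter light over untreated wells divided by growth signal over untreated wells; some hits fall short of that in this replicate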
Env fusion inh – HIV envelope-mediated fusion inhibition | inhibition, % at 12.3 µM | 360,000 compounds, 1.1% hits | HeLa-JRFL Env/CEM21 cell fusion, luciferase;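 active = mean replicate inhibition score of at least 50 and every replicate individually at or above 50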;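 also: 0% = plate neutral controls and 100% = maraviroc near 300 nM; one replicate is shown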
* hit, by the source's call; [ ] = another dose, or the depositor's remark. Only part of the results is shown; rates above refer to the full screens.

| compound | UUG fidelity | Env fusion inh |
| --- | --- | --- |
| COc1ccc(-c2cnc3c(c2)C(=O)N([C@@H](C)CO)C[C@@H](C)[C@@H](CN(C)Cc2ccccc2)O3)cc1 | 13.0 | 9.6[16.7 µM] |
| COc1ccc(S(=O)(=O)N(C)C[C@H]2OCCCC[C@H](C)Oc3ccc(NS(=O)(=O)c4ccccc4)cc3C(=O)N([C@H](C)CO)C[C@H]2C)cc1 | 4.9 | 2.4[16.7 µM] |
| COc1cccc(C#Cc2cnc3c(c2)C(=O)N([C@H](C)CO)C[C@H](C)[C@@H](CN(C)C(=O)C2CCC2)O3)c1 | -6.1 | 6.2[16.7 µM] |
| C[C@@H]1CN([C@@H](C)CO)C(=O)c2cc(NS(=O)(=O)c3ccccc3)ccc2O[C@H]1CN(C)Cc1ccc2c(c1)OCO2 | 1.3 | -6.0[16.7 µM] |
| C[C@@H]1CCCCO[C@@H](CN(C)C(=O)Nc2ccc3c(c2)OCO3)[C@H](C)CN([C@H](C)CO)C(=O)c2cc(NC(=O)C3CCCCC3)ccc2O1 | -2.9 | -15.0[16.7 µM] |
| COc1ccc(NC(=O)Nc2cccc3c2O[C@@H](CN(C)S(=O)(=O)c2ccccc2)[C@H](C)CN([C@H](C)CO)C3=O)cc1 | -3.8 | -31.4[16.7 µM] |
| C[C@H](CO)N1C[C@H](C)[C@H](CN(C)Cc2ccc(Cl)c(Cl)c2)Oc2ccc(NC(=O)Nc3ccc(F)cc3)cc2C1=O | -3.3 | 20.5[16.7 µM] |
| CN1CCN(C(=O)C[C@H]2C[C@@H]3c4cc(NC(=O)Nc5ccccc5F)ccc4O[C@@H]3[C@H](CO)O2)CC1 | -12.1 | 21.4[16.7 µM] |
| C[C@H](CO)N1C[C@H](C)[C@H](CN(C)Cc2ccccc2)Oc2cc(-c3ccccc3)ccc2S1(=O)=O | 4.8 | 79.4*[16.7 µM] |
| C[C@@H]1CCCCO[C@H](CN(C)C)[C@H](C)CN([C@@H](C)CO)C(=O)c2cc(NC(=O)Nc3cccc4ccccc34)ccc2O1 | 1.6 | -0.2[16.7 µM] |
| C[C@H](CO)N1C[C@H](C)[C@H](CN(C)Cc2ccc(Oc3ccccc3)cc2)Oc2ccc(NS(=O)(=O)c3ccc(Cl)cc3)cc2CC1=O | 11.4 | -7.9[16.7 µM] |
| C[C@H]1CN([C@@H](C)CO)C(=O)c2cccc(NC(=O)C3CC3)c2O[C@@H]1CN(C)S(C)(=O)=O | -21.4 | -9.7[16.7 µM] |
| C[C@@H]1CN([C@@H](C)CO)C(=O)c2cc(Br)cnc2O[C@@H]1CN(C)C(=O)C1CC1 | -4.7 | -9.7[16.7 µM] |
| C[C@@H]1CN([C@@H](C)CO)C(=O)Cc2cc(NC(=O)CCN3CCOCC3)ccc2O[C@H]1CN(C)S(=O)(=O)c1cn(C)cn1 | 3.4 | -7.3[16.7 µM] |
| C[C@H](NC(=O)C[C@@H]1CC[C@H](NC(=O)CN2CCOCC2)[C@H](CO)O1)c1ccccc1 | -13.1 | -13.9[16.7 µM] |
| C[C@@H]1CN([C@@H](C)CO)C(=O)Cc2cc(NS(=O)(=O)c3cccs3)ccc2O[C@@H]1CN(C)Cc1ccc(C(F)(F)F)cc1 | 1.6 | -27.0[16.7 µM] |
| Cc1noc(C)c1S(=O)(=O)Nc1ccc2c(c1)CC(=O)N([C@@H](C)CO)C[C@@H](C)[C@@H](CN(C)C(=O)Nc1ccc(F)cc1)O2 | 1.3 | 8.2[16.7 µM] |
| N#C[C@H]1[C@@H](c2ccccc2)[C@H](CO)N1C(=O)CN1CCOCC1 | 0.7 | 19.8[16.7 µM] |
| C[C@H]1CN([C@@H](C)CO)C(=O)CCCn2cc(nn2)CO[C@@H]1CN(C)Cc1ccccc1 | -15.7 | 12.2[16.7 µM] |
| CN(C)CC(=O)Nc1ccc2c(c1)[C@H]1C[C@@H](CC(=O)NCCc3ccccc3)O[C@@H](CO)[C@H]1O2 | 1.5 | -20.3[16.7 µM] |
| C[C@@H]1CCCCO[C@@H](CN(C)C)[C@H](C)CN([C@H](C)CO)C(=O)c2cc(NC(=O)CCC(F)(F)F)ccc2O1 | 8.6 | 8.9[16.7 µM] |
| CCCC#Cc1ccc([C@@H]2[C@@H](CO)N(S(=O)(=O)c3cccc(F)c3)[C@H]2C#N)cc1 | 7.8 | 5.7[16.7 µM] |
| CN(C)C(=O)C[C@@H]1CC[C@H](NC(=O)Nc2cccc(F)c2)[C@H](CO)O1 | -21.5 | -6.8[16.7 µM] |
| CO[C@@H]1CN(C)C(=O)c2cc(NC(C)=O)ccc2OC[C@@H](C)N(C(=O)c2ccccn2)C[C@H]1C | 11.2 | -46.0[16.7 µM] |
| CCCC#Cc1ccc([C@@H]2[C@@H](C#N)N(C(=O)C3CCC3)[C@H]2CO)cc1 | -2.5 | -5.5[16.7 µM] |
| Cc1ccc(-c2ccc3c(c2)O[C@@H](CN(C)C(=O)Nc2ccccc2)[C@@H](C)CN([C@@H](C)CO)S3(=O)=O)cc1 | -11.1 | -17.3[16.7 µM] |
| Cc1ccc(S(=O)(=O)N[C@H]2C=C[C@@H](CC(=O)NCCCN(C)C)O[C@@H]2CO)cc1 | -10.4 | -2.7[16.7 µM] |
| Cc1ccc(S(=O)(=O)N(C)C[C@H]2Oc3ccc(NS(=O)(=O)c4c(C)noc4C)cc3CC(=O)N([C@H](C)CO)C[C@H]2C)cc1 | 4.8 | 21.9[16.7 µM] |
| C[C@@H]1CN([C@@H](C)CO)C(=O)c2cc(N(C)C)ccc2O[C@@H]1CN(C)S(=O)(=O)c1cn(C)cn1 | -3.4 | 3.6[16.7 µM] |
| O=C(C[C@@H]1CC[C@@H](NS(=O)(=O)c2ccc(F)cc2)[C@@H](CO)O1)NC1CCC1 | -6.2 | 0.8[16.7 µM] |
| C[C@H]1CN([C@@H](C)CO)C(=O)c2cc(N(C)C)ccc2O[C@H]1CN(C)S(=O)(=O)c1cccs1 | 1.6 | 31.7[16.7 µM] |
| C[C@@H]1CCCCO[C@H](CN(C)C(=O)C2CCCCC2)[C@@H](C)CN([C@H](C)CO)C(=O)c2cc(NC(=O)CCC(F)(F)F)ccc2O1 | 9.8 | 7.6[16.7 µM] |
| CC(C)CC#Cc1cnc2c(c1)C(=O)N([C@@H](C)CO)C[C@@H](C)[C@H](CN(C)C(=O)c1cccnc1)O2 | 5.6 | 4.2[16.7 µM] |
| COc1ccc(S(=O)(=O)N[C@@H]2CC[C@@H](CC(=O)N3CCN(c4ccccc4)CC3)O[C@@H]2CO)cc1 | 6.3 | 11.0[16.7 µM] |
| C[C@@H]1CN([C@H](C)CO)C(=O)c2cc(NC(=O)CCC(F)(F)F)ccc2O[C@@H](C)CCCCO[C@H]1CN(C)Cc1ccc(Cl)c(Cl)c1 | 10.3 | 26.7[16.7 µM] |
| C[C@H](CO)N1C[C@H](C)[C@H](CN(C)CC2CCCCC2)Oc2ccc(NC(=O)Nc3ccc(F)cc3)cc2CC1=O | 0.0 | 17.6[16.7 µM] |
| COC(=O)[C@]1(Cc2ccccc2)N=C(c2ccc(OCCCO)cc2)O[C@@H]1c1ccccc1CN=[N+]=[N-] | -5.9 | 54.8[16.7 µM] |
| Cc1noc(C)c1NC(=O)Nc1cccc2c1O[C@@H](CN(C)Cc1ccccc1)[C@@H](C)CN([C@H](C)CO)C2=O | -2.2 | -3.9[16.7 µM] |
| CC(C)CC#Cc1ccc2c(c1)O[C@@H](CN(C)Cc1cncnc1)[C@H](C)CN([C@@H](C)CO)S2(=O)=O | 3.6 | 7.3[16.7 µM] |
| Cc1ccc(-c2ccc3c(c2)O[C@@H](CN(C)Cc2ccc(C(=O)O)cc2)[C@@H](C)CN([C@@H](C)CO)S3(=O)=O)cc1 | 24.4 | -7.3[16.7 µM] |
| C[C@H](CO)N1C[C@H](C)[C@H](CN(C)C(=O)Nc2ccc(C(F)(F)F)cc2)Oc2ccc(NC(=O)Nc3cccc4ccccc34)cc2CC1=O | -0.7 | 11.6[16.7 µM] |
| COc1ccc(CN(C)C[C@@H]2Oc3ccc(NC(=O)Nc4ccccc4)cc3CC(=O)N([C@H](C)CO)C[C@@H]2C)cc1 | -0.9 | 11.0[16.7 µM] |
| C[C@H](CO)N1C[C@H](C)[C@H](CN(C)C(=O)Nc2cccc3ccccc23)OCCCC[C@H](C)Oc2ccc(NS(=O)(=O)c3ccc(F)cc3)cc2C1=O | 8.3 | -4.2[16.7 µM] |
| C[C@@H]1CCCCO[C@H](CN(C)Cc2ccc3c(c2)OCO3)[C@@H](C)CN([C@@H](C)CO)C(=O)c2cc(NC(=O)c3ccccc3)ccc2O1 | 9.2 | -27.6[16.7 µM] |
| C=CCNC(=O)[C@@H]1[C@H]2C(=O)O[C@H](c3ccccc3)[C@H](c3ccccc3)N2[C@H](c2ccc(O)cc2)[C@@]12C(=O)Nc1ccc(C#CC3=CCCCC3)cc12 | -6.1 | 13.0[16.7 µM] |
| CCCNC(=O)Nc1ccc2c(c1)C(=O)N(C)[C@H]1CC[C@@H](CC(=O)O)O[C@@H]1CO2 | -14.7 | 16.0[16.7 µM] |
| O=C(C[C@H]1C[C@@H]2c3cc(NC(=O)C4CCC4)ccc3O[C@@H]2[C@H](CO)O1)NCc1ccc(-c2ccccc2)cc1 | -2.5 | 12.9[16.7 µM] |
| C[C@H]1CN([C@@H](C)CO)S(=O)(=O)c2ccc(/C=C/c3ccccc3)cc2O[C@H]1CN(C)Cc1cncnc1 | -1.6 | -8.6[16.7 µM] |
| CC(=O)Nc1ccc2c(c1)C(=O)N(C)[C@H]1CC[C@H](CC(=O)Nc3cn(C)nc3C)O[C@H]1CO2 | -14.4 | 0.0[16.7 µM] |
| O=C(C[C@@H]1CC[C@@H](NC(=O)CN2CCOCC2)[C@@H](CO)O1)NCCc1ccccc1 | -1.4 | 15.0[16.7 µM] |
| COc1ccccc1C(=O)Nc1ccc2c(c1)OC[C@@H](C)N(C)C[C@@H](C)[C@H](OC)CN(C)C2=O | 9.3 | -2.5[16.7 µM] |
| C[C@H]1CN([C@@H](C)CO)C(=O)Cc2cc(NC(=O)Cc3cn(C)c4ccccc34)ccc2O[C@H]1CN(C)Cc1ccc(Cl)c(Cl)c1 | -10.6 | -12.1[16.7 µM] |
| O=C(C[C@@H]1CC[C@@H]2NC[C@H](O)COC[C@H]2O1)NCc1ccc(Oc2ccccc2)cc1 | -4.1 | -0.2[16.7 µM] |
| C[C@@H]1CN([C@H](C)CO)S(=O)(=O)c2ccc(C#Cc3ccccc3)cc2O[C@@H]1CN(C)C(=O)Nc1ccc2c(c1)OCO2 | -5.4 | -9.0[16.7 µM] |
| C[C@H]1CCCCO[C@@H](CN(C)C(=O)Nc2ccc3c(c2)OCO3)[C@@H](C)CN([C@@H](C)CO)C(=O)c2cc(NC(=O)c3ccncc3)ccc2O1 | 2.7 | -8.7[16.7 µM] |
| CCC(=O)N(C)C[C@H]1Oc2cc(C#CC(C)C)ccc2S(=O)(=O)N([C@@H](C)CO)C[C@@H]1C | 6.4 | -60.9[16.7 µM] |
| CCC(=O)N(C)C[C@H]1Oc2cc(C#Cc3ccccc3)ccc2S(=O)(=O)N([C@@H](C)CO)C[C@@H]1C | -18.8 | 19.6[16.7 µM] |
| Cc1ccc(S(=O)(=O)N[C@H]2CC[C@@H](CCNC(=O)CN3CCOCC3)O[C@H]2CO)cc1 | -15.6 | 13.7[16.7 µM] |
| CC(C)NC(=O)Nc1ccc2c(c1)C(=O)N([C@@H](C)CO)C[C@@H](C)[C@H](CN(C)C(=O)Nc1ccc3c(c1)OCO3)O2 | -4.6 | 7.0[16.7 µM] |
| C[C@@H]1CCCCO[C@@H](CN(C)Cc2ccc(C(=O)O)cc2)[C@H](C)CN([C@H](C)CO)C(=O)c2cc(NS(=O)(=O)c3ccc(Cl)cc3)ccc2O1 | 0.7 | -12.8[16.7 µM] |

(more compounds)
Compound | UUG fidelity | Env fusion inh
COc1ccc(S(=O)(=O)Nc2ccc3c(c2)C(=O)N([C@@H](C)CO)C[C@H](C)[C@@H](CN(C)C(=O)Nc2c(C)noc2C)OCCCC[C@@H](C)O3)cc1 | 24.8 | 5.1[16.7 µM]
C=CCSC1=N[C@@]2(COCc3ccc(OC)cc3)Oc3ccccc3[C@H]([C@H]2CO[Si](C)(C)C(C)(C)C)N1C(=O)c1ccccc1 | 5.7 | 13.8[16.7 µM]
CCC(=O)N1C[C@@H](C)[C@@H](OC)CN(C)C(=O)c2cc(NC(=O)c3ccc(F)cc3)ccc2OC[C@@H]1C | 2.6 | 3.9[16.7 µM]
C[C@H](CO)N1C[C@H](C)[C@H](CN(C)S(C)(=O)=O)Oc2cc(C#CC3CC3)ccc2S1(=O)=O | 1.8 | 12.0[16.7 µM]
C[C@H]1CN([C@@H](C)CO)C(=O)c2cccc(NS(=O)(=O)c3ccccc3)c2O[C@H]1CN(C)CC1CCCCC1 | -9.2 | -16.6[16.7 µM]
